Source: PubChem (Fisher Drug Discovery Resource Center)
NPYLR7 ag = mosquito NPYLR7 agonism. HEK293T NPYLR7/Galpha15, GCaMP6s calcium fluorescence. activation, % at 10 µM. actives 0.15% (n = 270,000). AID 1259423; in the data active means activation above about 40%;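 further: 0% = vehicle and 100% = reference agonist at the receptor; some compounds past the cut are filed as inactive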
NPYLR7 ag max-min = also measured in NPYLR7 ag; calls as there; activation, %; measured here: Max-Min RFU normalised activation; some inactives read as strong as hits;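 span of the calcium signal over five minutes; 0% = vehicle and 100% = native peptide agonist; compound fluorescence can raise it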
Numbers without * were called inactive; & = joins results of further samples.

For COCCN(CC(=O)N(CCc1c[nH]c2ccccc12)Cc1ccccc1OC)C(=O)Nc1ccc(C)cc1C the results were NPYLR7 ag 2 and NPYLR7 ag max-min -7.
For Cc1ccc(F)cc1NC(=O)N1CCN(CCCOC(c2ccc(Cl)cc2)c2ccc(Cl)cc2)CC1 the results were NPYLR7 ag 0 and NPYLR7 ag max-min 8.
Screening COc1c(C)cnc(CSc2nc3cc(S(=O)(=O)N4CCOCC4)ccc3n2CC2CCCO2)c1C (stereo not given) returned NPYLR7 ag 4 and NPYLR7 ag max-min 5.
`COc1ccccc1Oc1cncnc1-c1ccc(OCc2ccccc2)cc1O` gave NPYLR7 ag -6 and NPYLR7 ag max-min -10.
`Fc1ccccc1-c1n[nH]c2c1CN(Cc1cccn1-c1nccs1)CC2` gave NPYLR7 ag 3 and NPYLR7 ag max-min 0.
CCN1CCN2CCCN(C(=O)/C=C/c3cn(Cc4ccccc4)nn3)C2C1=O (stereo not given) was read as NPYLR7 ag 3 and NPYLR7 ag max-min 2.
CC(C1CC1)N(C)C(=O)C1Cc2ccccc2S1 (stereo not given) was read as NPYLR7 ag 5 and NPYLR7 ag max-min 2.
For N#Cc1c(NC(=O)CSc2ncn[nH]2)sc2c1CCCCC2 the results were NPYLR7 ag 0 and NPYLR7 ag max-min -3.
For NC1CCC(Nc2nccc3[nH]c(-c4cccc(C(F)(F)F)c4)nc23)CC1 (stereo not given) the results were NPYLR7 ag -5 and NPYLR7 ag max-min -13.
Screening CCOC(=O)N1CCN(CC(=O)N2N=C(c3ccccc3OC)CC2c2ccccc2Cl)CC1 (stereo not given) returned NPYLR7 ag 11 and NPYLR7 ag max-min 8.
`CCOC(=O)C1(C)CCN1C(=O)c1cccc(C)c1C` (stereo not given) gave NPYLR7 ag -1 and NPYLR7 ag max-min -4.
For COc1ccccc1/C=C/C=C1\N=C(c2ccccc2OC)OC1=O the results were NPYLR7 ag -1 and NPYLR7 ag max-min -6.
`CCCCCCCC(=O)N1CCN(c2nc(Cc3ccccc3)nc3c2cnn3-c2ccccc2)CC1` gave NPYLR7 ag 9 and NPYLR7 ag max-min 7.
`CCCCC1(C)OC(=O)C(=Cc2ccc(OCc3ccc4c(c3)OCO4)c(OC)c2)C(=O)O1` (stereo not given) gave NPYLR7 ag 11 and NPYLR7 ag max-min 10.
For CCCCN(Cc1cccn1Cc1ccc(Br)cc1)C(=O)CN(CCCC)S(=O)(=O)c1ccc(NC(C)=O)cc1 the results were NPYLR7 ag -2 and NPYLR7 ag max-min 6.
`C=CCn1ccnc1C(O)(c1c[nH]c2ccccc12)C(F)(F)F` (stereo not given) gave NPYLR7 ag 21 and NPYLR7 ag max-min 14.
Screening CCCCCCc1ccc(C(=O)N2CCCN(c3nc(Cc4ccc(Cl)cc4)ns3)CC2)cc1 returned NPYLR7 ag -11 and NPYLR7 ag max-min -6.
COc1ccc(C(=O)Nc2c(C)nc3c(C)cccn3c2=O)cc1 was read as NPYLR7 ag 3 and NPYLR7 ag max-min 1.
For CN=C1SC(CC(=O)NCCCOC)C(=O)N1C (stereo not given) the results were NPYLR7 ag 6 and NPYLR7 ag max-min 4.
For COc1ccc(OCCC(=O)Nc2ccc(Br)cc2C)cc1 the results were NPYLR7 ag 17 and NPYLR7 ag max-min 14.
For CC(=O)N1CCN(C2CN(C(C)c3ccc(C#N)cc3)CC2C)CC1 (stereo not given) the results were NPYLR7 ag 4 and NPYLR7 ag max-min 3.
For CS(=O)(=O)NC1CCN(CCOCc2ccccc2)CC1 the results were NPYLR7 ag 20 and NPYLR7 ag max-min 11.
Screening COc1ccc(-n2c(SCc3ccc(C(=O)NCc4ccc(F)cc4)cc3)nnc2-c2ccco2)cc1 returned NPYLR7 ag 22 and NPYLR7 ag max-min 23.
`CCCCC(CC)C(=O)Nc1ccc(-c2cccc(-c3cccc(OC)c3)n2)cc1` (stereo not given) gave NPYLR7 ag -4 and NPYLR7 ag max-min -9.
For O=[N+]([O-])c1ccc(-c2nc(-c3ccc(F)cc3)c(-c3ccncc3)[nH]2)cc1 the results were NPYLR7 ag -8 and NPYLR7 ag max-min 4.
Screening Cc1ccnc(Nc2ccc(NCCNC(=O)/C=C/c3ccccc3)nn2)c1 returned NPYLR7 ag 9 and NPYLR7 ag max-min -1.
For CCOC(C)c1noc(C23CC4CC(CC(NC(C)=O)(C4)C2)C3)n1 (stereo not given) the results were NPYLR7 ag 11 and NPYLR7 ag max-min 7.
CC(CCn1cccn1)N1CCc2onc(-c3ccc4c(c3)OCO4)c2C1 (stereo not given) was read as NPYLR7 ag 2 and NPYLR7 ag max-min 0.
CCN1CCN(c2cc(C)nc3c4c(C)cc(C)nc4nn23)CC1 was read as NPYLR7 ag 0 and NPYLR7 ag max-min 10.
For CCCc1cc(Nc2ccncc2)n2nc(C)c(-c3ccccc3)c2n1 the results were NPYLR7 ag 2 and NPYLR7 ag max-min 10.
Screening CC(C)(C)C1CCC(NC(=O)c2ccc(-n3nc(-c4cccc(Cl)c4)cc3N)cc2)CC1 (stereo not given) returned NPYLR7 ag -7 and NPYLR7 ag max-min -17.
`COc1ccc(S(=O)(=O)NCC2CCCN(C(=O)c3ocnc3C)C2)cc1` (stereo not given) gave NPYLR7 ag 8 and NPYLR7 ag max-min 0.
Screening C=CCN(Cc1ccccc1OC)C(=O)C/C=C/C returned NPYLR7 ag 8 and NPYLR7 ag max-min 6.
`Cc1cc(NC(=O)N(C)C2CCCCC2C)ccc1N(C)C` (stereo not given) gave NPYLR7 ag -4&-10 and NPYLR7 ag max-min -7&-14.
For O=C(Cn1ccccc1=O)NC1CCN(c2cccc(Cl)c2)C1=O (stereo not given) the results were NPYLR7 ag -2 and NPYLR7 ag max-min 27.
`Cc1ccc(C2c3ccsc3CCN2C(=O)CN(C(=O)c2ccc(Br)cc2)C2CC2)cc1` (stereo not given) gave NPYLR7 ag 0 and NPYLR7 ag max-min 1.
CCCC(=O)OCC(O)CN(Cc1nc2sc(C(=O)OCC)c(C)c2c(=O)[nH]1)C1CCCCC1 (stereo not given) was read as NPYLR7 ag 6 and NPYLR7 ag max-min 12.
Cc1ccccc1-n1c(Cc2ccccc2)nnc1SCc1cccc(C(F)(F)F)c1 was read as NPYLR7 ag 1 and NPYLR7 ag max-min 6.
`COc1cc(C(=O)N2CCN(c3ncccc3NC(=O)c3ccc4c(c3)OCO4)CC2)cc(Cl)n1` gave NPYLR7 ag -4 and NPYLR7 ag max-min -3.
`COc1cccc(-c2nc3c(C)cccn3c2NC(C)(C)CC(C)(C)C)c1` gave NPYLR7 ag -11 and NPYLR7 ag max-min -4.
`NCCC1CN(c2nc(-c3ccccc3)nc3c2CCNC3)CCO1` (stereo not given) gave NPYLR7 ag -1 and NPYLR7 ag max-min -1.
Screening CCn1c(CC2CCNCC2)nn(CC2CC(c3ccccc3)=NO2)c1=O (stereo not given) returned NPYLR7 ag 0 and NPYLR7 ag max-min -3.
`CCN(C(=O)CN1C(=O)C(C)Oc2ccccc21)c1ccc(C)cc1C` (stereo not given) gave NPYLR7 ag 0 and NPYLR7 ag max-min -4.
`Cc1cccc(-n2ccn(CC(N)=O)c(=O)c2=O)c1C` gave NPYLR7 ag 19 and NPYLR7 ag max-min 15.
Screening O=C1CC(NCc2ccc3c(c2)OCCO3)CN1C1Cc2ccccc2C1 (stereo not given) returned NPYLR7 ag 2 and NPYLR7 ag max-min -2.
CNC(=O)CN(C(=O)NC1CCCCC1)[C@H]1[C@H](O)[C@@H]2O[C@H]1c1ccccc12 was read as NPYLR7 ag 4 and NPYLR7 ag max-min 3.
`CC(NC(=O)c1cc2c(=O)n(C)c(=O)n(C)c2n1Cc1ccccc1)c1ccccc1` (stereo not given) gave NPYLR7 ag 16 and NPYLR7 ag max-min 14.
For N#Cc1cccc(C(=O)N2CCN(c3nccc(-c4ccco4)n3)CC2)c1 the results were NPYLR7 ag -7 and NPYLR7 ag max-min -14.
Screening COc1cc(C#N)ccc1OCC(=O)NCC1(c2ccc3c(c2)OCCO3)CCCC1 returned NPYLR7 ag 4 and NPYLR7 ag max-min 0.
`CCCNC(=O)CN1CCN(c2ccc(C(F)(F)F)cn2)CC1` gave NPYLR7 ag 2 and NPYLR7 ag max-min 0.
For COc1cc(C(O)c2nc(-c3cnn(C)c3)cs2)ccc1F (stereo not given) the results were NPYLR7 ag 7 and NPYLR7 ag max-min 2.
CCCCOc1ccc(C(=O)Nn2cnc3c(cnn3-c3ccc(C)c(C)c3)c2=O)cc1 was read as NPYLR7 ag 3 and NPYLR7 ag max-min 0.
`C=CCn1c(N2CCN(Cc3cccc(Cl)c3)CC2)nc2c1c(=O)[nH]c(=O)n2C` gave NPYLR7 ag 4 and NPYLR7 ag max-min -2.
For O=C(NCCc1ccccn1)c1cc2n(n1)CCN(Cc1cccc(F)c1)C2=O the results were NPYLR7 ag -2 and NPYLR7 ag max-min -2.
Screening Cc1cccc(N(C)C(=O)c2cc(S(C)(=O)=O)ccc2F)c1 returned NPYLR7 ag 6 and NPYLR7 ag max-min 386.
Screening Cc1sc2nc(SC3C=CCCC3)[nH]c(=O)c2c1C (stereo not given) returned NPYLR7 ag 4 and NPYLR7 ag max-min 3.
Screening CCOC(=O)c1ccc(N=CN(C)C)o1 returned NPYLR7 ag -5 and NPYLR7 ag max-min -8.
Cc1ccccc1C(=O)N1CCCC(N2CCN(c3ccccc3C)CC2)C1 (stereo not given) was read as NPYLR7 ag 3 and NPYLR7 ag max-min 8.
`CCn1nc(C)cc1C(=O)NCCn1c(C)cc(C)nc1=O` gave NPYLR7 ag -5 and NPYLR7 ag max-min -6.
O=C(NCCc1ccccn1)c1coc(CN(Cc2ccccc2)Cc2ccco2)n1 was read as NPYLR7 ag 7 and NPYLR7 ag max-min 18.
For COc1ccc(N(C)S(=O)(=O)c2ccc(OC)c(N3CCN(C(=O)C(OC(C)=O)c4ccccc4)CC3)c2)cc1 (stereo not given) the results were NPYLR7 ag 18 and NPYLR7 ag max-min 10.
`CN(CC(=O)Nc1ccccc1)C(=O)C1CC2CCCC(C1)C2=O` (stereo not given) gave NPYLR7 ag 3 and NPYLR7 ag max-min 2.
`Cc1cc(N(CCO)CCO)ccc1N=Nc1cc(F)ccc1F` gave NPYLR7 ag 2 and NPYLR7 ag max-min -4.
N#CC1(NS(=O)(=O)c2ccc(S(=O)(=O)N3CCCC3)cc2)CCCCC1 was read as NPYLR7 ag 11 and NPYLR7 ag max-min 6.
For CN(C)c1cc(N(C)Cc2cc(C(C)(C)C)n[nH]2)ncn1 the results were NPYLR7 ag 2 and NPYLR7 ag max-min -1.
For COc1ccc(NC(=O)N2c3cc(C)c(C)cc3C(C)=CC2(C)C)cc1OC the results were NPYLR7 ag 2 and NPYLR7 ag max-min 5.
Screening CCOC(=O)CCCC(=O)N1CCc2cc(OC)c(OC)cc2C1c1cccc(C(F)(F)F)c1 (stereo not given) returned NPYLR7 ag 9 and NPYLR7 ag max-min 6.
`CC(C)CC(CO)NC(=O)Nc1cccs1` (stereo not given) gave NPYLR7 ag -1 and NPYLR7 ag max-min -5.
`COc1nc2ccccc2cc1-c1c(-c2ccccc2)ncn1CCc1cnc[nH]1` gave NPYLR7 ag -13 and NPYLR7 ag max-min -13.
For Cn1cc(C(CC(=O)N2CCN(Cc3ccc4c(c3)OCO4)CC2)c2cccc(C(F)(F)F)c2)c2ccccc21 (stereo not given) the results were NPYLR7 ag 20 and NPYLR7 ag max-min 27.
`COc1cc2c(cc1OC)C1CN(C(=O)Nc3ccc(C)c(F)c3)CC(=O)N1CC2` (stereo not given) gave NPYLR7 ag 26 and NPYLR7 ag max-min 7.
O=c1[nH]nc(C(O)c2ccccc2)n1Cc1cccs1 (stereo not given) was read as NPYLR7 ag 11 and NPYLR7 ag max-min 9.
Cc1nn(C(C)(C)C)c(OC(=O)c2ccc(F)cc2)c1S(=O)(=O)c1ccccc1 was read as NPYLR7 ag 2 and NPYLR7 ag max-min 37.
For COc1cccc(C(C)NCc2cnc(SC)nc2N(C)C2CCCCC2)c1 (stereo not given) the results were NPYLR7 ag -3 and NPYLR7 ag max-min 3.
Cc1ccc(N2C(=O)c3ccc4c5c(ccc(c35)C2=O)C(=O)N(c2ccc(C)cc2C)C4=O)c(C)c1 was read as NPYLR7 ag -13 and NPYLR7 ag max-min -17.

Grouped by structure: the entries above with an NH in an aromatic ring (12)
For COCCN(CC(=O)N(CCc1c[nH]c2ccccc12)Cc1ccccc1OC)C(=O)Nc1ccc(C)cc1C the results were NPYLR7 ag 2 and NPYLR7 ag max-min -7.
`Fc1ccccc1-c1n[nH]c2c1CN(Cc1cccn1-c1nccs1)CC2` gave NPYLR7 ag 3 and NPYLR7 ag max-min 0.
For N#Cc1c(NC(=O)CSc2ncn[nH]2)sc2c1CCCCC2 the results were NPYLR7 ag 0 and NPYLR7 ag max-min -3.
For NC1CCC(Nc2nccc3[nH]c(-c4cccc(C(F)(F)F)c4)nc23)CC1 (stereo not given) the results were NPYLR7 ag -5 and NPYLR7 ag max-min -13.
`C=CCn1ccnc1C(O)(c1c[nH]c2ccccc12)C(F)(F)F` (stereo not given) gave NPYLR7 ag 21 and NPYLR7 ag max-min 14.
For O=[N+]([O-])c1ccc(-c2nc(-c3ccc(F)cc3)c(-c3ccncc3)[nH]2)cc1 the results were NPYLR7 ag -8 and NPYLR7 ag max-min 4.
CCCC(=O)OCC(O)CN(Cc1nc2sc(C(=O)OCC)c(C)c2c(=O)[nH]1)C1CCCCC1 (stereo not given) was read as NPYLR7 ag 6 and NPYLR7 ag max-min 12.
`C=CCn1c(N2CCN(Cc3cccc(Cl)c3)CC2)nc2c1c(=O)[nH]c(=O)n2C` gave NPYLR7 ag 4 and NPYLR7 ag max-min -2.
Screening Cc1sc2nc(SC3C=CCCC3)[nH]c(=O)c2c1C (stereo not given) returned NPYLR7 ag 4 and NPYLR7 ag max-min 3.
For CN(C)c1cc(N(C)Cc2cc(C(C)(C)C)n[nH]2)ncn1 the results were NPYLR7 ag 2 and NPYLR7 ag max-min -1.
`COc1nc2ccccc2cc1-c1c(-c2ccccc2)ncn1CCc1cnc[nH]1` gave NPYLR7 ag -13 and NPYLR7 ag max-min -13.
O=c1[nH]nc(C(O)c2ccccc2)n1Cc1cccs1 (stereo not given) was read as NPYLR7 ag 11 and NPYLR7 ag max-min 9.

A portion of the library, so the mix of outcomes need not match the whole.
